Bioassay records (PubChem)
TRPML1 ag = qHTS for Agonists of the Human Mucolipin Transient Receptor Potential 1 (TRPML1); Mucolipin-1 (Homo sapiens), Q9GZU1; TRPML1-expressing cells, Ca2+ dye fluorescence, FDSS; host cell line not named in the record; reference of the full effect not given here; activation, % (no concentration beside the values); 0.12% of 410,000 active; in the data active = activation above about 50%; inconclusive = about 30% to 50%; inactive = below about 30%; note: 0% is about no effect; the text of the record puts the active cut at 80%
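TRPML1-DL cells, Tet-induced overnight (~16 h, 37 degrees C), loaded 45-90 min at room temperature with Ca8 no-wash calcium dye plus quencher. FDSS fluorescence: 10 s baseline, compound pin-transfer, 110 s agonist read, then EC80 54-4 (4uM final) and 110 s antagonist read.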
PINK1 expr mod = A Quantitative High throughput Screen to Identify Chemical Modulators of PINK1 Expression | PINK1 immunofluorescence, high-content cytometry, 24 h | Potency, µM (series often up to 76.6 µM), without a hit: at the highest dose activation (PINK1 increase), usual class: activators | 0.2% of 410,000 active; active = well fitted activation curve with a large enough effect; inconclusive = small, poorly fitted or top-dose-only effect; inactive = flat fitted curve, though single readings scatter; cell line not stated here;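 note: potency is the fitted concentration of half-maximal effect; % of control where 0% means no effect; nearly all actives have a fitted effect of over 65% in size; a mitochondrial uncoupler was the plate control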
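A stable cell line was treated with compounds at 5 concentrations for 24 hours, with CCCP as control. PINK1 levels and mitochondrial localization were measured by immunofluorescence with mitochondrial, cell and nuclear markers after fixation, read by laser-scanning cytometry.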
D2 agonist = Beta-Arrestin HTS for Positive Allosteric Modulators of the Human D2 Dopamine Receptor: Agonists; DiscoveRx PathHunter D2 beta-arrestin, luminescence, 90 min; 100% = 57 uM dopamine signal; activation, % (concentration not given with the values); D(2) dopamine receptor (Homo sapiens), P14416; AID 624465, 2012; 0.084% of 360,000 active; in the data active = activation above about 40%; inconclusive = about 15% to 40%; inactive = below about 15%; note: compound concentration not given in the record; the text of the record calls up to 30% inactive
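DiscoveRx PathHunter D2 beta-arrestin cells (2,100/well) attached overnight, then compound-stimulated 90 min at 37 C in HBSS/10 mM HEPES/0.1% Tween-20 buffer; beta-galactosidase complementation read by luminescence after 1 h at ambient temperature. Dopamine 57 uM final (EC100) as control.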
CtBP-E1A blk = qHTS Assay for Inhibitors of the CtBP/E1A Interaction; AlphaScreen GST-E1A/His-CtBP binding, 1536-well; active compounds read low; control for the full effect not named in the record; activity change, % (no concentration beside the values); 0.49% of 340,000 active; in the data active means activity change below about -65%; inconclusive means about -30% to -65%; inactive means above about -30%; note: % is set by controls: 0 for no effect and ±100 for the full control effect
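Protein mix (5X: 125 nM each GST-E1A, His-CtBP) was incubated with pinned compound 2 h at 37 deg C in dark, in 50 mM Tris pH 8.0 buffer with 300 mM NaCl. Glutathione donor and nickel acceptor beads followed; AlphaScreen signal read after 1 h.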
TRPML1 blocker = qHTS for Inhibitors of the Human Mucolipin Transient Receptor Potential 1 (TRPML1); Mucolipin-1 (Homo sapiens), Q9GZU1; TRPML1-inducible cells, Ca2+ dye fluorescence, FDSS; active compounds read low; inhibition of EC80 agonist-evoked calcium signal; activity change, negative = inhibition, % (concentration not given with the values); 0.02% of 390,000 active; in the data active means activity change below about -50%; inconclusive means about -30% to -50%; inactive means above about -30%;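 note: stimulus is agonist 54-4 at its EC80 concentration; % is set by controls: 0 for no effect and ±100 for the full control effect; the text of the record puts the active cut at -80%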
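Tet-induced TRPML1-DL cells loaded with Ca8 no-wash calcium dye were read kinetically on FDSS. Compound addition was followed by EC80 agonist 54-4 (4 uM final); inhibition was read over 110 s.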
Six1-Eya2 blk = qHTS Assay for Inhibitors of the Six1/Eya2 Interaction; 0.56% of 360,000 active; AlphaScreen GST-Six1/His-Eya2 binding, biochemical; active compounds read low; control for the full effect not named in the record; activity change, % (test concentration not listed); in the data active = activity change below about -65%; inconclusive = about -30% to -65%; inactive = above about -30%; note: % is set by controls: 0 for no effect and ±100 for the full control effect
Target sequence (O00167 whole entry, looked up): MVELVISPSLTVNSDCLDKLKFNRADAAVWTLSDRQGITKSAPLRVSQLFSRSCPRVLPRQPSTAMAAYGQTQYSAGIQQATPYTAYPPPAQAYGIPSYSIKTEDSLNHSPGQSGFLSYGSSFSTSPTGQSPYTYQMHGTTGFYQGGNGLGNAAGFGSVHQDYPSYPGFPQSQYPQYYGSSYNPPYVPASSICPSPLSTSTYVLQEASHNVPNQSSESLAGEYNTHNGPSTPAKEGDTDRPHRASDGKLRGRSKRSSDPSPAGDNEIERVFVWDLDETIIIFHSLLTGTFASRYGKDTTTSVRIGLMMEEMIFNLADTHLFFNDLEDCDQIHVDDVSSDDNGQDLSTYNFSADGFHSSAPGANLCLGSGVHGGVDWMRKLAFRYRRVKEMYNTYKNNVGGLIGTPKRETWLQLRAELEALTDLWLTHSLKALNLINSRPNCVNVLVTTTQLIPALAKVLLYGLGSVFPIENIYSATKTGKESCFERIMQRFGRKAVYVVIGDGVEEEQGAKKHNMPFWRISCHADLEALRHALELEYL
Target sequence (Q15475 whole entry, looked up): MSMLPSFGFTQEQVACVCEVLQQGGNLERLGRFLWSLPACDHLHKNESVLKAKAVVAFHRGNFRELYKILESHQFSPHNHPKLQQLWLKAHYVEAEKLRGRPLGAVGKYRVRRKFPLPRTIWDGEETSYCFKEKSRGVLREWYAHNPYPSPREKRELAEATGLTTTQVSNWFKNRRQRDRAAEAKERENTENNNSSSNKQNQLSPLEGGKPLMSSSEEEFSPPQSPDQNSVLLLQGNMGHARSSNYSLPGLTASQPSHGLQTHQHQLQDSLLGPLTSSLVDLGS
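Homogeneous AlphaScreen proximity assay pairing GST-Six1 with His-tagged Eya2 (added as 5X mix: 250 nM and 500 nM) in 50 mM Tris pH 8.0, 300 mM NaCl, 1 mM TCEP. Glutathione donor and nickel acceptor beads; 1 h, 37 °C, dark.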
Active calls of the source: *; ? = inconclusive; . = no result given; & = joins results of further samples; [ ] = another dose, or the depositor's remark. An unsorted share of the library. Share with any hit: about 1%.

SMILES | TRPML1 ag | PINK1 expr mod | D2 agonist | CtBP-E1A blk | TRPML1 blocker | Six1-Eya2 blk
CC(=O)C1=C(O)C(=O)N(Cc2ccco2)C1c1ccc(F)cc1 (stereo unspecified) | -0.5 | 4.1%[38.3 µM] | 0.1 | 3.2 | 2.8 | 4.6
CN(C)C(CNC(=O)CCNC(=O)c1ccccc1Cl)c1ccco1 (stereo unspecified) | -0.6 | 2.4% | -1.9 | . | 2.0 | -3.8
CCOC(=O)C(=O)N=Nc1c(O)n(C)c2ccccc12 | 0.0 | -0.4% | 2.4 | . | 25.5 | 2.6
CC(C)n1ncc2c(C(=O)NCCOc3ccccc3F)cc(C3CC3)nc21 | 3.4 | ? | -4.7 | 4.7 | 20.3 | -2.7
Cc1ccc(S(=O)(=O)C(C#N)=C2N(C)c3ccccc3N2C)cc1 | 0.1 | 5.0% | -1.2 | 0.6 | 13.9 | 5.6
CCc1ccc(NC(=O)CNC(=O)[C@@H]2Cc3ccccc3CN2C(=O)OC(C)(C)C)cc1 | 0.7 | 1.8% | 1.4 | . | -2.5 | 0.8
CC(C)Oc1ccc(CNC(=O)C2CCN(c3nc4ccccc4nc3C(F)(F)F)CC2)cc1 | -0.4 | 9.1% | . | . | -18.4 | .
COc1ccc(-c2c(C(C)=O)c(C)nc3sc4c(c23)NC(c2ccccc2)NC4=O)cc1 (stereo unspecified) | -0.4 | 14.3% | 2.9 | 6.8 | 16.4 | 2.1
CNC(=O)C1(C(F)(F)F)C/C(=C\CCO)CCCO1 (stereo unspecified) | 0.3&0.5 | 1.7% | -4.4 | 3.2 | -6.1&-16.3 | -0.1
Cc1ccc(NC2(c3ccccc3)C(=O)c3ccccc3C2=O)cc1F | 1.0 | 2.0% | . | . | 63.5 | .
CCOc1ccc2c(C)c(Cl)c(=O)oc2c1 | -0.6 | 1.2% | -2.6 | 8.8 | 20.9 | -2.5
COCCN(Cc1ccco1)C(=O)Cn1ncc2c([nH]c3ccccc32)c1=O | 1.3 | 4.4% | . | . | -13.2 | .
COc1ccc(Cn2c(SCc3ccc(C(=O)NC4CCCCC4)cc3)nc3cccnc32)cc1 | 1.4 | 8.1% | . | . | -16.6 | .
CCCN(C(=O)CSc1cc(-c2ccccc2)c2ccc(OC)cc2n1)C1CCS(=O)(=O)C1 (stereo unspecified) | 2.1 | 3.9% | -1.7 | -11.3 | -3.3 | -11.6
COc1ncnc2c1ncn2CCCNCC(C)c1ccccc1 (stereo unspecified) | . | -0.2% | -3.9 | 1.6 | . | 0.7
Cc1ccc(S(=O)(=O)NCCNc2ccccc2[N+](=O)[O-])cc1 | -1.5 | -0.9% | -7.4 | -7.2 | -9.8 | 0.1
Oc1cc2c(cc1C(c1ccc(Br)cc1)N1CCCC1)OCO2 (stereo unspecified) | 0.0 | -0.5% | 0.6 | -18.5 | 2.7 | -24.2
CCOc1ccc(NC(=S)N(CCN2CCOCC2)Cc2cc3cc4c(cc3[nH]c2=O)OCO4)cc1 | 0.0 | 1.5% | 2.6 | . | -3.5 | -0.4
Cc1cc(F)ccc1S(=O)(=O)Nc1ccc(C(=O)N2CCCCCC2)cc1 | 1.9 | 0.8% | 9.7 | -0.1 | -11.0 | 2.3
COc1cc(NC(=O)CSc2nnc(-c3ccncc3)n2C2CCCCC2)ccc1NC(=O)c1ccco1 | 0.9 | -2.9%[38.3 µM] | 1.4 | 4.7 | 2.8 | -4.5
Cc1ccc(CNS(=O)(=O)c2c(C(=O)N3CCCCC3)c(C)n(C)c2C)cc1 | -0.6 | -0.1% | -2.6 | -0.3 | -4.4 | -4.3
CCC(=O)OC1CC(C)N(C(=O)c2ccccc2)c2ccc(C)cc21 (stereo unspecified) | 0.0 | -1.3% | -7.6 | 6.1 | -4.7 | 5.3
Cc1ccc(C)c(NC(=O)Cc2ccc(S(=O)(=O)N3CCCCC3)s2)c1 | 0.9 | 2.8% | 1.8 | 3.4 | 13.9 | 4.1
COc1ccccc1C(=O)Nc1ccnn1C1CCN(C)CC1 | -0.7 | -1.2% | 4.3 | -1.0 | 20.4 | -2.2

Whole records from above. Screens in order: TRPML1 ag, PINK1 expr mod, D2 agonist, CtBP-E1A blk, TRPML1 blocker, Six1-Eya2 blk
Results for `Cc1ccc(S(=O)(=O)NCCNc2ccccc2[N+](=O)[O-])cc1` : -1.5, -0.9%, -7.4, -7.2, -9.8, 0.1
Results for `CCC(=O)OC1CC(C)N(C(=O)c2ccccc2)c2ccc(C)cc21` (stereo unspecified) : 0.0, -1.3%, -7.6, 6.1, -4.7, 5.3

Additional results follow:
SMILES | TRPML1 ag | PINK1 expr mod | D2 agonist | CtBP-E1A blk | TRPML1 blocker | Six1-Eya2 blk
O=c1cc(-c2ccsc2)oc2cc(-c3ccc4c(c3)OCO4)ccc12 | -0.9 | 5.1% | -2.1 | -0.1 | 6.3 | -3.0
OCCCNc1ncnc2sc(-c3ccccc3)cc12 | -0.5 | 0.9% | 0.9 | 7.3 | -19.1 | -2.4
O=C1N=C2N(CCN3CCCCC3)c3ccccc3N2/C1=C\c1ccc([N+](=O)[O-])s1 | . | 5.1% | -2.3 | 9.9 | . | 4.0
Cc1ccc(OCC(=O)N(Cc2ccco2)C2CCS(=O)(=O)C2)cc1C (stereo unspecified) | -0.2 | -1.1% | -6.3 | -3.0 | 7.2 | -1.5
Cc1cc(NC(=O)CSc2nnc(Cc3ccccc3)o2)no1 | -0.2 | 1.4% | 0.8 | ? | -12.5 | ?
COc1ccc(CNC(=O)c2ccc3ccccc3n2)cc1OC | -1.8 | 3.8% | 2.9 | 16.4 | -20.6 | 2.5
CCN(c1ccccc1)c1nnc(NC(=O)Nc2ccc(C)cc2)s1 | -0.8 | 2.0% | . | . | -5.2 | .
CCCCC(=O)Nc1cc([N+](=O)[O-])ccc1F | -0.4 | 6.8% | -1.6 | 2.3 | 5.2 | -2.7
CC1CCCCC12NC(=O)N(CC(=O)NNC(=O)c1ccc(Br)cc1)C2=O (stereo unspecified) | -0.4 | 0.4% | -1.0 | -0.3 | 0.6 | 5.5
O=C(CC1C(=O)NCCN1CC(c1ccccc1)c1ccccc1)NC1CC1 (stereo unspecified) | -0.4 | 3.3% | -1.2 | -7.4 | -10.3 | 1.1
CCOC(=O)c1c(NC(=O)CSc2c[nH]c3ccccc23)sc2c1CCCC2 | 0.9 | 17.5% | -0.6 | 3.7 | 13.5 | -13.0
COc1ccc(C)cc1NC(=O)Cn1c(=O)n(Cc2nc(C)no2)c(=O)c2ccccc21 | -0.5 | 1.2% | . | . | -14.4 | .
CSc1ccc(NC(=O)NCCCN2CCC(Cc3ccccc3)CC2)cc1 | 1.1 | -1.6% | -3.8 | . | 66.5 | ?
COc1ccc(C(=O)OCC(=O)NCc2ccccc2)c(OC)c1OC | -0.5 | -0.4% | 2.9 | 4.3 | 7.0 | -3.3
COc1ccc(-n2c(SCC(=O)C(C)(C)C)nc3c(sc(=S)n3-c3ccccc3)c2=O)c(OC)c1 | 0.8 | 1.0% | 0.1 | 6.0 | -2.9 | -16.0
CCCCNC(=S)NCc1ccc2c(c1)cc(C)n2C | 0.1 | -0.6% | -0.9 | -21.4 | -3.4 | -6.3
CCOC(=O)CSc1nnc(-c2cc(OC)c(OC)c(OC)c2)o1 | 0.4 | 4.4% | 3.6 | 0.6 | -8.3 | 0.0
CCOC(=O)Cc1cc(C)[nH]c1C(=O)OCC | -0.1 | 0.1% | -4.6 | 0.8 | 1.5 | -0.7
Cc1ccc2c(c1)c1c3n2CCN(CC(O)CNC(C)C)C3CCC1 (stereo unspecified) | 0.3 | 1.2% | ? | -8.2 | -4.7 | -7.7
CCCCCCC(=O)N1C/C=C\C(c2ccc(OC)cc2)N(Cc2ccc(F)cc2)C(=O)C1 (stereo unspecified) | 0.0&-0.4 | 3.3% | 1.7 | -0.8 | 23.6&-10.8 | 1.0
C=C(C)CCC(C)N1CCC(n2nccc2NC(=O)CCCc2ccccc2)CC1 (stereo unspecified) | -0.6 | -0.1% | 1.2 | -16.2 | -8.0 | -8.0
Cn1cc(/C=C2/SC(=O)N(c3ccccc3)C2=O)c2ccccc21 | 0.0 | 7.2% | 1.2 | -3.3 | 6.6 | 15.5
COc1cc(C(=O)NC2CCN(C)CC2)ccc1Nc1ncc2c(n1)N(Cc1ccccc1)CCC(=O)N2C | 1.2 | 11.6% | -3.6 | -5.9 | -0.8 | 5.9
COc1ccc(CCC(C)NCC2CCCCC2)cc1 (stereo unspecified) | -0.1 | -0.7% | -1.3 | -1.0 | -15.3 | 0.9
O=S(=O)(c1ccc(Cl)cc1)c1nnn2c1nc(NCc1cccs1)c1sccc12 | 0.1 | -0.3% | . | . | -15.3 | .
CCOC(=O)c1cc(NC(=O)c2cc(C)on2)cc(C(=O)OCC)c1 | 0.5 | 10.5%[38.3 µM] | 1.2 | -4.4 | -4.1 | -0.2
O=C(NC1CCCC1)C1CCCN(S(=O)(=O)c2cnc[nH]2)C1 (stereo unspecified) | 0.1 | -0.5% | -3.1 | 5.4 | 14.0 | 11.7
CC1(C)CC(=O)C2=C(C1)OC(N)=C(C#N)C2c1ccccc1 (stereo unspecified) | -0.1 | -1.1%[38.3 µM] | 1.0 | 0.5 | 5.0 | 2.1
CCCCn1nnnc1C(c1ccccc1)N1CCN(c2ccc(OC)cc2)CC1 (stereo unspecified) | 20.8 | 0.1% | . | ? | . | -20.6
CC(=O)N1CCN(C(=O)CCc2nc3sc4c(c3c(=O)[nH]2)CCCC4)CC1 | 4.0 | 4.0% | -3.3 | 2.5 | 6.9 | -0.7
Nc1ccc(S(=O)(=O)NCC(=O)OC2CCOC2=O)cc1[N+](=O)[O-] (stereo unspecified) | -0.6 | -0.1% | -0.3 | 1.5 | -8.2 | 1.4
CCOC(=O)c1ccc(NC(=O)c2c(NCc3sccc3C)sc3c2CCCCC3)cc1 | -0.3 | 1.8% | . | . | -9.5 | .
Cc1ccc(OC(=O)C(F)(F)F)c2c1NCCC2 | 0.3 | -4.1%[38.3 µM] | -1.9 | -0.6 | 7.5 | -1.0
CCn1c(/C=C/c2ccc(O)c(O)c2)nc2ccccc2c1=O | -0.1 | 0.1% | 5.8 | . | -0.2 | -29.6
O=C(Cc1ccc(F)cc1)Nc1cccc(-c2cn3c(n2)SCC3)c1 | -0.3 | 2.4% | 2.7 | 7.7 | -2.7 | -3.0
CCN(CC)c1ccc(NC(=O)COc2ccc(C#N)cc2)cc1S(=O)(=O)Nc1ccc(OC)cc1 | 0.8 | -0.2% | 2.2 | -5.1 | 13.1 | -2.5
Cc1cccc(C(=O)NC(=S)NNC(=O)c2ccc(Cl)cc2)c1 | ? | 1.6% | -2.2 | -14.5 | -6.1 | -12.1
